NPR1 antag: Natriuretic polypeptide receptor (hNpr1) antagonism - Primary qHTS; HEK293 hNpr1 GloSensor cGMP, ANP-stimulated luminescence; Potency, µM (series often up to 46.3 µM), for the others: at the top dose activity change, negative = inhibition, actives largely listed as inhibitors; 76,000 tested, 1.6% active; active = well fitted inhibition curve with a large enough effect; inconclusive = small, poorly fitted or top-dose-only effect; inactive = no such curve, though single readings can be large or run the other way;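 further: nearly all actives have a fitted effect of over 60% in size; nearly all hits also lower the signal before the agonist is added; a reference antagonist and vehicle were the controls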
Target sequence (P16066 whole entry, looked up): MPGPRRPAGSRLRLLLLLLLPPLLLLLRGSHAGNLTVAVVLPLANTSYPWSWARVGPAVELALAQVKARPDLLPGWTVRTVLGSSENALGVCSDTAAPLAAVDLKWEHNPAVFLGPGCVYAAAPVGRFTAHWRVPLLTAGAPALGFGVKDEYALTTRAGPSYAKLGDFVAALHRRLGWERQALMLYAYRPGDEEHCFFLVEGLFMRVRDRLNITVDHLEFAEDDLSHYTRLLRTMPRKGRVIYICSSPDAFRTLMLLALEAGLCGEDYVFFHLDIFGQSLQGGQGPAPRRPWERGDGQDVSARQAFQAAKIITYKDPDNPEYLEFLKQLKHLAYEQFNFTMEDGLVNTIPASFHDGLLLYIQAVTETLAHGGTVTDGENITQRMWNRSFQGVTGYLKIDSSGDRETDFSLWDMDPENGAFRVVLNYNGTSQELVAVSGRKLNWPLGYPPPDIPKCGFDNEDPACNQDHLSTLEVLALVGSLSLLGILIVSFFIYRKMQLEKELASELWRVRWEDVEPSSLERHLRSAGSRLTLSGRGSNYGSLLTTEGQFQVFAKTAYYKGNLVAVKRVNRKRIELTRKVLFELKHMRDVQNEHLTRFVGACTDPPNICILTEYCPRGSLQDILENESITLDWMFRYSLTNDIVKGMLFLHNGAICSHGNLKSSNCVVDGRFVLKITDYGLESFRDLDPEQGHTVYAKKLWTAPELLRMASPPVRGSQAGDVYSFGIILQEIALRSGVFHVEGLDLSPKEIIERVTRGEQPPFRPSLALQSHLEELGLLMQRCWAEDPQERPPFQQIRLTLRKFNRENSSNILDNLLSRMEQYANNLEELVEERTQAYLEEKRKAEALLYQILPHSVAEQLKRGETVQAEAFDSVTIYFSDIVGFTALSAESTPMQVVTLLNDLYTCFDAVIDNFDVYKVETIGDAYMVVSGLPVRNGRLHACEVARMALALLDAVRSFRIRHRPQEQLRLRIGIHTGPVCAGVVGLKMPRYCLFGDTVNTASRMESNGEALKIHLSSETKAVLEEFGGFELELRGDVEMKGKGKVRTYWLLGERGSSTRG
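Compound pre-incubated 30 min at room temperature on GloSensor-loaded HEK293 cells stably carrying hNpr1 and the pGS-40F cGMP biosensor. Stimulation uses hNppA at 0.1 nM final; luminescence is taken at baseline and 20 min post-agonist.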
An asterisk follows results filed as active; ? = inconclusive; [ ] = remark or other dose. On the % scale 0 is the no-effect control and ±100 the full control effect; potency means the concentration at half of the fitted maximal effect.

NPR1 antag	smiles
5%	Cc1ccc(CNC(=O)c2ccc(N3CC4CC(C3)[C@H]3CCCC(=O)N3C4)nc2)o1 (some centres not stated)
0%	O=C(c1ccc2c(c1)OCO2)N1CCC2(CC1)CN[S+](=O)([O-])c1ccccc1N2
3%	O=C1NCCCCCCN(C(=O)c2ccco2)[C@H]2CCCC[C@@H]12
-9%	COCCn1cncc1CNc1nc(C)nc2ncccc12
-7%	CCOc1cc(=O)n2c(c1C(=O)Nc1ccccc1Cl)CCCC2
-17%	O=C(c1cccc(Cl)c1)N1CCc2nc(C3CC3)nc(-c3ccc(O)cc3)c2CC1
0%	CN1CCC(OC2CCN(C(=O)c3ccccn3)CC2)CC1
14%	Cc1cn2nc(C(=O)N3CCC(NC(=O)c4ccc[nH]4)CC3)cc2c(=O)[nH]1
1%	CN1CCCCCCN(C(=O)C2(c3ccccc3)CC2)[C@H]2CCC[C@H]2C1=O
13µM*	COc1cccc(-c2noc(COC(=O)C3=CN(C)S(=O)(=O)N=C3C)n2)c1
-14%	CC(NC(=O)Cc1ccc(N(Cc2ccccc2)C(=O)c2ccco2)cc1)c1ccccc1 (configuration not stated)
2%	NC(=O)[C@@H](Cc1ccccc1)NC(=O)[C@@H]1C[C@@H](NS(=O)(=O)c2cccs2)CCN1C(=O)COCC(=O)O

The closing 5 compounds of the part before are carried over, then new ones follow:
NPR1 antag	smiles
14%	Cc1cn2nc(C(=O)N3CCC(NC(=O)c4ccc[nH]4)CC3)cc2c(=O)[nH]1
1%	CN1CCCCCCN(C(=O)C2(c3ccccc3)CC2)[C@H]2CCC[C@H]2C1=O
13µM*	COc1cccc(-c2noc(COC(=O)C3=CN(C)S(=O)(=O)N=C3C)n2)c1
-14%	CC(NC(=O)Cc1ccc(N(Cc2ccccc2)C(=O)c2ccco2)cc1)c1ccccc1 (configuration not stated)
2%	NC(=O)[C@@H](Cc1ccccc1)NC(=O)[C@@H]1C[C@@H](NS(=O)(=O)c2cccs2)CCN1C(=O)COCC(=O)O
-1%	O=C(O)[C@@H]1CN(Cc2ccccc2)C[C@@H]1C(=O)N1CCCC1
7%	CCCN(Cc1nccn1C)C(=O)c1cccc(C2CCNC2)c1 (configuration not stated)
1%	COc1cccc(NC(=O)N[C@H]2CCN(C(=O)c3cnccn3)[C@@H]2C(=O)N[C@H](Cc2ccccc2)C(N)=O)c1
-4%	COc1ccccc1CC(=O)Nc1ccc2ncnc(N3CCCCC3)c2c1
2%	CC(C)C(=O)N1CCC(OC2CCN(Cc3ccccc3)CC2)CC1
5%	CC1(C)CN(S(=O)(=O)N2CCCC2)CC1c1ccccc1 (configuration not stated)
0%[70.6 µM]	CC(C)CC(=O)N1CCOCC12CCN(CCCc1ccccc1)CC2
-2%[70.6 µM]	COc1ccc(NC(=O)c2cnc3c(c2)N(C(=O)CCc2ccccc2)CCC3)cn1
-6%	O=C(O)c1ccc2c(c1)n(Cc1cccc(F)c1)c(=O)c1ccnn12
6%	COc1ccc(CN2CC3(CCN(C(=O)c4cccc(C)c4)CC3)C2=O)cc1
-2%	CC1(O)CCCN(Cc2cc3cc4c(cc3nc2-c2ccc(Cl)cc2)OCO4)C1 (configuration not stated)
5%	CC(C)c1nnsc1CN1CCCn2nc(C(O)C3CCC3)cc2C1 (configuration not stated)
-2%[70.6 µM]	CN(C)Cc1ccc(-c2cc(-c3ccncc3)c3cncn3c2)cc1
0%	Cn1cc(S(=O)(=O)NC2CC(c3cc(N4CCC(O)C4)ncn3)C2)cn1 (configuration not stated)
11µM*	Cn1nc(C2CCN(S(=O)(=O)c3ccc4c(c3)CCCC4)CC2)n(C2CCCC2)c1=O
3%	O=C(Cn1ccn2nc(-c3ccc(F)cc3)c(CO)c2c1=O)Nc1cccc(C(F)(F)F)c1
?	CC(=O)c1cc(CN2CCOC(CCCc3ccccc3)C2)cs1 (configuration not stated)
3%[70.6 µM]	COc1ccc(C(=O)N[C@@H]2CN(C(=O)Nc3cccc(C#N)c3)CCC[C@H]2O)cc1
4%	Cc1cnc(C(=O)N[C@@H]2CCC[C@@H]2C(=O)NCc2ccc(OC(C)C)cc2)cn1
-2%	CS(=O)(=O)N(Cc1cccnc1)C1CN(C(=O)c2ccc3cc[nH]c3c2)C1
-1%	O=C1NCCN2CC3(CCN(C(=O)c4ccco4)CC3)CC12 (configuration not stated)
2%	Cc1ccccc1-c1noc(CCC(=O)N[C@H]2CC[C@H]2N)n1
0%	C[C@H]1[C@@H]2[C@@H](O)C([C@H](C)C(=O)NCc3cccs3)CC[C@@]2(C)CC[C@@H]1NC(=O)C1CCCCC1 (some centres not stated)
0%	Cc1cccc(C(=O)N2C[C@@H](Oc3cccnc3)C[C@H]2C(=O)N2CCCC2)c1
35µM*	O=C1CC2(CCN(CC3CC3)CC2)Oc2ccccc21
-1%	CC(C)NC(=O)N[C@H]1C[C@H]2C(=O)NC[C@@H](CCC(=O)N3CCN(c4ccccn4)CC3)N2C1
5%	Fc1ccc(Cc2noc(-c3ccc(NCCCn4ccnc4)nc3)n2)cc1
-14%	N#Cc1ccc(CN2CCCCCCNC(=O)[C@@H]3C[C@@H](C(=O)N4CCc5ccccc5C4)C[C@@H]32)cc1
0%	COc1ccc2[nH]c3c(c2c1)CCN(C)C31CCN(C(=O)c2ccc(OC)nc2)CC1
0%	Cc1cccc(=O)n1CCC(=O)N1CCCn2nc(CO)cc2C1
-9%	COc1cc(NC(=O)N2CC(c3nnc(C(C)C)o3)C3(CCOCC3)C2)cc(OC)c1 (configuration not stated)
-2%	CC(=O)N1CC(CO)C2(CCN(C(=O)c3cccc(C#N)c3)CC2)C1 (configuration not stated)
-19%[70.6 µM]	COc1ccccc1N1CCCc2ncc(C(=O)Nc3cccc(C(F)(F)F)c3)cc21
?	O=C1[C@H]2CC[C@H](CN(Cc3ccc(-n4ccnc4)cc3)C2)N1CC1CCC1
-13%	CCN1CCN(C(=O)C23CCCC=C2N(C2CCCC2)C(=O)CC3)CC1 (configuration not stated)
-1%	CC(C)C[C@@H]1N[C@H](C(=O)N2CCC(O)(c3ccccc3)CC2)Cc2cn(C)c3cccc1c23
-13%	COc1cccc(C(=O)N2C(C(=O)NCc3ccccc3)COC23CCN(C(=O)CC(C)C)CC3)c1 (configuration not stated)
4%	COc1ccc(OC)c(NC(=O)N2CCC(OC3CCN(S(C)(=O)=O)CC3)CC2)c1
-2%	COCC(=O)N[C@@H]1CN(Cc2ccc(Br)o2)C[C@H]1CO
5%	COc1ccccc1C(=O)NC1CCN(c2ccccc2)C1=O (configuration not stated)
-14%	CC(C)N1C(=O)C2(CCCCC2)C1C(=O)NCc1nc2ccccc2n1C (configuration not stated)
4%	CCNC(=O)[C@@H]1C[C@H](NC(=O)Cc2ccccc2C)CN1C1CCCC1
6%	CC(=O)Nc1ccc(OCC(=O)O)nc1
-3%	Cc1oc2ccn(Cc3cccc(F)c3)c(=O)c2c1C(=O)NC(C)c1ccccn1 (configuration not stated)
3%	Clc1ccccc1C1Cn2nnc(-c3noc(COc4ccccc4)n3)c2CO1 (configuration not stated)
0%	O=C(c1cccnc1OC1CCN(S(=O)(=O)Cc2ccccc2)C1)N1CCOCC1 (configuration not stated)
-17%[70.6 µM]	CC(C)CCN1CCC2(CC1)OC(=O)N(Cc1ccc(O)cc1)C2(C)c1ccccc1 (configuration not stated)
-2%	CCN1CC(c2ccccc2)CC2(CCN(C(=O)c3cnccn3)CC2)C1 (configuration not stated)
-11%	CCC(C)NC(=O)C(C)N1C(=O)COc2ccc(C(=O)COc3ccc(OC)cc3)cc21 (configuration not stated)
0%	O=C1CCc2cc(NC(=O)c3cccc(C(F)(F)F)c3)ccc2N1
-3%	CN(C)c1ccc(CN2CCCC3(CC(c4cccc(C(F)(F)F)c4)=NO3)C2)cc1 (configuration not stated)
4%	CN1C[C@H](O)C[C@H]1c1nnc2n1CCN(C(=O)CCCc1ccccc1)CC2
11µM*	O=C(c1ccc(F)c(F)c1)N1CCC(n2cc(-c3nc(-c4ccccc4)no3)nn2)CC1
0%	Cn1c(Cn2cccn2)nnc1C1CCCN(C(=O)c2cccc(F)c2)C1 (configuration not stated)
-1%	COc1ccc(C(=O)N2CCC(N3C(=O)C(O)C34CCCCC4)CC2)c(OC)n1 (configuration not stated)
-3%[70.6 µM]	Cc1ccc(-n2nc3n(c2=O)CCN(C(=O)c2ccccc2C)C3)cc1
?	Cc1ccsc1C(=O)N1CCC2(CC1)N=C(c1ccc(Cl)cc1)NO2
-3%	COCC(=O)Nc1nc2c(s1)C[C@@H]1[C@](C)(CO)[C@H](O)CC[C@@]1(C)[C@@H]2CC(=O)NCc1ccc(OC)cc1
-1%	CN1C(=O)CCCCC1C(=O)N1CCOCC1 (configuration not stated)
-3%	COCCNC(=O)[C@H]1C[C@H](Oc2ccccc2)CN1C(=O)NCC(C)C

(more compounds)
NPR1 antag	smiles
-2%	Cc1cc(C(F)(F)F)nn1CC(=O)N1CCc2nn(CC3CC3)c(=O)n2CC1
-1%	NC(=O)c1cccc(CC2CCN(C(=O)c3ccnc(-n4cnnc4)c3)C2)c1 (configuration not stated)
-6%	Cc1cccc(-c2nocc2CCC(=O)NC(C)c2ccc(F)cc2)c1 (configuration not stated)
0%	O=C1CN(Cc2cc3cc4c(cc3[nH]c2=O)OCO4)CCCN1
0%	COCC1CN(C)CC12CCN(C(=O)Cc1ccc(OC)c(Cl)c1)CC2 (configuration not stated)
32µM*	Cn1nccc1C(=O)N1CCC2(CC1)OCCN(Cc1ccccc1F)C2=O
5%	Cn1ccnc1CN1CCN(Cc2ccc3cccc(Cl)c3n2)CC1
8%	CCOC(=O)N1CCN(C(=O)C(c2ccccc2C)N(C)C)CC1 (configuration not stated)
0%[70.6 µM]	Cc1ccc(CNC[C@H]2Cn3cc(-c4ccccc4)nc3CO2)cc1
-23%	COCC1CN(C2CCC2)CC12CCN(C(=O)NCCc1ccccc1)CC2 (configuration not stated)
3%	O=C(c1ccc(N2CCOCC2)nc1)N1CCC(Cn2cccn2)CC1
-7%	COCCn1cnnc1C(C)Nc1nc(-c2cccnc2)nc2c1CNC2 (configuration not stated)

5 entries picked at random from the list so far:
NPR1 antag	smiles
32µM*	Cn1nccc1C(=O)N1CCC2(CC1)OCCN(Cc1ccccc1F)C2=O
0%	O=C1CN(Cc2cc3cc4c(cc3[nH]c2=O)OCO4)CCCN1
-23%	COCC1CN(C2CCC2)CC12CCN(C(=O)NCCc1ccccc1)CC2 (configuration not stated)
5%	Cn1ccnc1CN1CCN(Cc2ccc3cccc(Cl)c3n2)CC1
-1%	NC(=O)c1cccc(CC2CCN(C(=O)c3ccnc(-n4cnnc4)c3)C2)c1 (configuration not stated)

Following part:
NPR1 antag	smiles
1%	O=C(NCCC1CCN(C(=O)Nc2cc(F)ccc2F)CC1)C1CC1
-2%	O=C(CN1C(=O)COc2ccc(C(=O)COc3cccc(F)c3)cc21)NCc1ccco1
-1%	O=C1CC(c2ccccc2)N(Cc2ccncc2)CCCN(C(=O)c2ccsc2)CCN1 (configuration not stated)
-2%	Cc1nncn1C1CCN(S(=O)(=O)c2ccccc2)CC1
28%[70.6 µM]	N#Cc1ccc(CN2CCN(c3ccc(Cl)nn3)C(=O)C2)cc1
1%	Cc1ccc(NC(=O)Cn2c(N3CCc4ccccc4C3)nc(C)cc2=O)c(Cl)c1
-10%[70.6 µM]	Cc1ccccc1-c1cc(C(=O)NCC[S+](C)(=O)[O-])c2c(c1)N(C)CCO2
3%	Cc1c(Cl)cccc1NC(=O)c1ccc2c(c1)N(S(C)(=O)=O)CC2
2%	Cc1cccc(C(=O)N2CCC3(CC2)CC(c2ccccc2)C(=O)N3)c1 (configuration not stated)
-4%	O=C(N[C@@H]1CCN(C(=O)CCc2cccc(Cl)c2)C[C@H]1O)c1cnccn1
-1%	CCc1ccc(NC(=O)N2CCC(n3cnnc3C3CC3)C2)cc1 (configuration not stated)
-2%	COc1ccc(OC)c(-c2cc(Cl)c3c(c2)CC(CNC(=O)c2c(F)cccc2F)O3)c1 (configuration not stated)

Overlap with the part before: five entries, then new ones.
NPR1 antag	smiles
3%	Cc1c(Cl)cccc1NC(=O)c1ccc2c(c1)N(S(C)(=O)=O)CC2
2%	Cc1cccc(C(=O)N2CCC3(CC2)CC(c2ccccc2)C(=O)N3)c1 (configuration not stated)
-4%	O=C(N[C@@H]1CCN(C(=O)CCc2cccc(Cl)c2)C[C@H]1O)c1cnccn1
-1%	CCc1ccc(NC(=O)N2CCC(n3cnnc3C3CC3)C2)cc1 (configuration not stated)
-2%	COc1ccc(OC)c(-c2cc(Cl)c3c(c2)CC(CNC(=O)c2c(F)cccc2F)O3)c1 (configuration not stated)
-22%[70.6 µM]	COc1ccc(CN2C(=O)[C@@H]3C[C@@H](CN3Cc3ccccc3)Oc3ccccc32)cc1
7%	Cc1ccc(CN2CCc3nc(N4CCN(C)CC4)[nH]c(=O)c3CC2)cc1C
-6%	O=C(Cc1ccc2c(c1)OCO2)N1CC(COc2ccccc2)C2(C1)CN(c1ccccc1)C2 (configuration not stated)
0%	O=C(CCNc1c(-c2ccccc2)nc2cnccn12)N1CCC(N2CCCCC2)CC1
-17%[70.6 µM]	O=C1c2c(nc(CNc3cccnc3)n2Cc2ccccc2)NCCN1Cc1ccccc1
?	CCc1cc(=O)n(CC(=O)Nc2cc(OC)c(OC)c(OC)c2)c(-c2ccccc2)n1
0%	Cc1ccc2cc(CN3CCN(CC(N)=O)CC3)c(-c3cccs3)nc2c1
1%	CCCCN1CCN(C(=O)c2cnc(-c3ccccc3)nc2-c2ccncc2)CC1
6%	O=C(C1CCOCC1)N1CCC(Oc2cccnc2)C1 (configuration not stated)
11µM*	O=C(c1ccccc1)N1CCC(C(=O)N2CCC(Cc3nc(-c4ccc(F)cc4)no3)CC2)CC1
?	O=C(CCC1CCCN(S(=O)(=O)c2ccccc2)C1)N1CCN(c2ccccn2)CC1 (configuration not stated)
0%	CCS(=O)(=O)NCc1cccnc1Oc1cccc(C(F)(F)F)c1
0%	COc1cccc(CN2CCCCCCNC(=O)[C@@H]3CCC[C@@H]32)c1OC

This is a subset, so the mix of outcomes need not match the whole.
